FGF22 binding = FGF22 (human) thermal shift binding. recombinant FGF22 thermal shift, SYPRO orange fluorescence; percent of sucrose octasulfate shift, DMSO zero. 340,000 compounds, 1.5% hits. Q9HCT0. calls only at 9.99 µM;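 active = melting point raised past a set limit in the mean and every replicate; three in four hits are not shown here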
Target sequence (Q9HCT0 whole entry, looked up): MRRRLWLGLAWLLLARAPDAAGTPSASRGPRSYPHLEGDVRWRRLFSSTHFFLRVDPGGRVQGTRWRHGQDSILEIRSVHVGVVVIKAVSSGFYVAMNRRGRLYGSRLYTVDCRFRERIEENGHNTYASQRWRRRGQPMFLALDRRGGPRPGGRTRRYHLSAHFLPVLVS
AF4-AF9 inh = blocks AF4 peptide binding to human AF9. 350,000 compounds, 0.47% hits. inhibition, % at 10 µM. AlphaScreen, biotin-AF4 peptide binding to FLAG-AF9. P42568;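 active = every replicate reaching a set inhibition limit, whatever the replicate mean, cut at about 25% in these data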;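 also: 0% = plate neutral control median and 100% = total signal loss; the record names both 10 and 1 µM as test concentration; the first replicate is given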
Target sequence (P42568 whole entry, looked up): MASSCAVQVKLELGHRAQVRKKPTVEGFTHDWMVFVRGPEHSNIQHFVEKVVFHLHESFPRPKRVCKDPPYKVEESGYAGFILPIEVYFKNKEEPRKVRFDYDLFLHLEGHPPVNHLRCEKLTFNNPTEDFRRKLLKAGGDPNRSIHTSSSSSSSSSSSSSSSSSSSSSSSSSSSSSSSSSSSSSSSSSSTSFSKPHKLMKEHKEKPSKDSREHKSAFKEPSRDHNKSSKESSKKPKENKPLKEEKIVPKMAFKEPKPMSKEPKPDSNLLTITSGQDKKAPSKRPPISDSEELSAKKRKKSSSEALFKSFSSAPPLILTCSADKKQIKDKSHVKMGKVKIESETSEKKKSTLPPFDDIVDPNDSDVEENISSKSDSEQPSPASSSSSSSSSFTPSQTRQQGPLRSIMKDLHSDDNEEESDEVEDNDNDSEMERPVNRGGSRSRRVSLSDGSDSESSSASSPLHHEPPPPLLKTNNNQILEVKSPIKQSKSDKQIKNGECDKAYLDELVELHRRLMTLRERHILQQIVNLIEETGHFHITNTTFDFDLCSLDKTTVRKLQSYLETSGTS
Ecoli rRNA inh = inhibitors of bacterial rRNA selective over humanized ribosomes; GFP signal change (wild-type ribosome), % (no concentration beside the values); 350,000 compounds, 1.6% hits; E. coli WT GFP vs humanized-ribosome RFP mutants, fluorescence, 24 h; stronger effect = lower value; DMSO median 0, no signal -100;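 active = significant combined selectivity score with lowered wild-type GFP, culture density cut under 30%, mutant RFP and density less affected; inactive = any of these conditions unmet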; also: one replicate is shown; some compounds called inactive have numbers as strong as hits
Ecoli rRNA inh OD600 = second read-out of Ecoli rRNA inh, no call of its own (marks repeat the call); OD600 change, %; measured here: OD600 growth;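 optical density of the mix in the first replicate; 0 = DMSO median and -100 = no signal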
Ecoli rRNA inh RFP = recorded beside Ecoli rRNA inh, whose call it bears; RFP signal change, %; measured here: RFP humanized mutant strains;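 first replicate; 0 = DMSO median and -100 = no signal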
* hit, by the source's call; i = inactive; · = not tested or not shown; + = active, no number; & = joins results of further samples. Some of the compounds tested. The share of hits here may be higher or lower than overall.

FGF22 binding	AF4-AF9 inh	Ecoli rRNA inh	Ecoli rRNA inh OD600	Ecoli rRNA inh RFP	mol
i	-0.4	1	2	-1.7	Cc1noc(C)c1S(=O)(=O)N(C)C[C@@H]1Oc2ccc(NC(=O)NC3CCCCC3)cc2CC(=O)N([C@@H](C)CO)C[C@@H]1C
i	8.2	-3	1	0.8	C[C@H]1CN([C@@H](C)CO)S(=O)(=O)c2ccc(C3=CCCCC3)cc2O[C@@H]1CN(C)Cc1ccccc1F
i	5.3	-7	-18	4.6	CCC(=O)N1C[C@@H](C)[C@@H](OC)CN(C)C(=O)c2cc(NC(=O)Nc3ccc(Cl)cc3)ccc2OC[C@H]1C
i	-0.5	-3	-6	-0.7	O=C(C[C@@H]1C[C@@H]2c3cc(NC(=O)Nc4ccccc4)ccc3O[C@@H]2[C@H](CO)O1)NCc1cccc(F)c1
i	-1.2	0	-6	-4.0	O=C(Nc1ccc2nc([C@H]3C[C@H](O)[C@@H](CO)O3)[nH]c2c1)NC(c1ccccc1)c1ccccc1
·	0.6	12	20	1.1	COC(=O)C[C@@H]1CC[C@H](NC(=O)CC2CC2)[C@@H](CO)O1
i	1.5	-4	-6	0.3	CO[C@@H]1CN(C)C(=O)c2ccc(NC(C)=O)cc2OC[C@H](C)N(CCC(F)(F)F)C[C@H]1C
i	-0.6	-11	-35	-7.2	Cc1cc([N+](=O)[O-])ccc1NS(=O)(=O)c1ccccc1
i	-16	-9	0	-1.0	C[C@@H]1CN([C@@H](C)CO)C(=O)c2cc(NC(=O)CCCCCC(=O)Nc3ccccc3N)ccc2O[C@@H]1CN(C)S(=O)(=O)c1ccc(Cl)cc1
i	0.8	3	-3	-2.6	CCCNC(=O)[C@@H]1[C@@H](CO)[C@@H]2Cn3c(cccc3=O)[C@@H]2N1C(=O)C1CCC1
i	-6.1	2	12	-4.6	O=C(Cn1cc(-c2ccccn2)nn1)NS(=O)(=O)c1cccc(OC(F)F)c1
i	3.0	-3	-2	7.9	C[C@H](CO)N1C[C@H](C)[C@@H](CN(C)Cc2ccc(-c3ccccc3)cc2)Oc2ccc(NC(=O)Cc3ccccc3)cc2CC1=O
i	1.1	-2	1	-0.1	CC(C)NC(=O)N1[C@H](CO)[C@@H]2c3ccccc3N(C(=O)Nc3ccc(F)cc3)C[C@@H]21
i	-3.6	0	-3	0.5	C[C@H]1CN([C@@H](C)CO)C(=O)c2cc(NC(=O)NC3CCCCC3)ccc2O[C@H]1CN(C)S(=O)(=O)c1ccc(Cl)cc1
i	-48	-36	-68	16	C(=C\c1ccccc1)/CN1CCN(C(c2ccnc3ccccc23)c2nnnn2C2CCCCC2)CC1 (configuration not stated)
i	-1.9	-7	4	8.8	CC1(C(=O)NS(=O)(=O)c2cccc(F)c2)CCN1C(=O)Cc1ccc(-c2ccccc2)cc1 (configuration not stated)
i	2.6	-34	-61	-11	CCN1C[C@@H]2[C@@H]3C(=O)N(Cc4ccccc4)C(=O)[C@@H]3[C@](C)(C1=O)N2C(=O)c1ccc(Cl)c(Cl)c1
i	-4.2	1	2	-4.3	CC(C)[C@H](C)NC(=O)N(C)C[C@H]1OCc2ccccc2-c2ccccc2C(=O)N([C@@H](C)CO)C[C@@H]1C
i	-2.1	0	0	0.5	CNC(=O)C[C@H]1CC[C@H]2[C@H](COc3ccc(NC(=O)c4cc(F)cc(F)c4)cc3C(=O)N2C)O1
i	2.1	1	4	-1.2	CCCC(=O)N1CC2(CN(C(=O)NC(C)C)C2)c2c(n(C)c3cc(OC)ccc23)[C@H]1CO
i	1.7	8	1	1.1	C=CCN1C(=O)/C(=C/N(C)C)S/C1=N\S(=O)(=O)c1cccs1
i	-1.1	5	-5	-0.7	CS(=O)(=O)N1[C@H](CO)[C@H](c2ccccc2)[C@@H]1C#N
i	2.0	15	10	0.1	Cc1cccc(C2=NN(c3ccc(Br)cc3)[C@@H](C(=O)N3CCOC3=O)[C@@H]2C)c1
i	0.1	5	14	-2.1	O=C(/C=C/[C@H]1O[C@@H](n2cnc3c(NC(=O)c4ccccc4)ncnc32)[C@H](O)[C@@H]1O)NCc1ccccc1
i	2.8	3	10	0.8	CNC(=O)C[C@@H]1CC[C@H]2[C@@H](COc3ccc(NC(=O)Nc4ccc(F)cc4)cc3C(=O)N2C)O1
i	6.6	-3	-19	-1.5	Nc1cc2c(cc1N)-c1ccccc1C2
i	2.1	3	-5	0.8	C[C@H]1CCCCO[C@@H](CN(C)S(=O)(=O)c2ccc(Cl)cc2)[C@@H](C)CN([C@@H](C)CO)C(=O)c2cc(NC(=O)NC3CCCCC3)ccc2O1
·	-4.7	-5	-11	-0.9	CC(C)Cn1c(SCC(=O)NC2CC2)nc2ccccc21
i	0.0	-1	-9	-1.9	Cc1noc(C)c1NC(=O)N[C@@H]1CC[C@H](CC(=O)NCCCN(C)C)O[C@H]1CO
i	2.2&1.6	-1	16	0.6	C[C@H](CO)N1C[C@H](C)[C@H](CN(C)S(C)(=O)=O)Oc2ncc(/C=C/c3ccccc3)cc2C1=O
i	-0.8	7	2	4.7	CCCN(C(=O)CSc1nnc(-c2ccc3c(c2)OCO3)o1)C1CCS(=O)(=O)C1 (configuration not stated)
i	-0.2	1	9	4.0	COc1ccc([C@H]2N[C@]3(CCCN(Cc4ccco4)C3=O)[C@H]3C(=O)N(C)C(=O)[C@@H]23)cc1
i	2.3	9	5	1.3	C=CCOc1cccn2c(N(C=O)Cc3ccccc3)c(CC)nc12
i	-1.0	1	-2	0.9	O=C(/C=C/[C@H]1O[C@@H](n2cnc3c(NC(=O)c4ccccc4)ncnc32)[C@H](O)[C@@H]1O)NCC1CCCCC1
i	-3.4	-2	-6	-2.4	COc1ccc(CN(C)C[C@@H]2Oc3c(NC(=O)C4CCCCC4)cccc3C(=O)N([C@H](C)CO)C[C@@H]2C)cc1
i	3.0	-1	9	0.2	COCC(=O)N1CC[C@@H]2[C@H](CO)Nc3ccc(C#Cc4ccc(OC)cc4)cc3[C@@H]21
i	3.1	-1	1	-0.9	CN1CCN(C(=O)C[C@@H]2C[C@@H]3c4cc(NC(=O)NC5CCCC5)ccc4O[C@@H]3[C@@H](CO)O2)CC1
+	-0.1	-4	-12	-3.5	O=C(C[C@@H]1CC[C@H]2[C@@H](COC[C@@H](O)CN2Cc2cc(F)ccc2F)O1)NCc1ccc(F)cc1
i	0.6	-2	0	-0.4	C[C@@H](NC(=O)C[C@H]1CC[C@H](NC(=O)Cc2ccccn2)[C@H](CO)O1)c1ccccc1
i	-2.3	-2	0	-1.6	C[C@@H]1CN([C@H](C)CO)C(=O)c2cccc(NC(=O)c3ccncc3)c2O[C@@H]1CN(C)S(=O)(=O)c1ccccc1
i	-1.6	1	3	-4.0	C[C@H]1CN([C@@H](C)CO)C(=O)c2ccccc2-c2ccccc2CO[C@H]1CN(C)Cc1ccc(O)cc1
i	-27	-4	1	-0.5	O=C(Nc1ccc2c(c1)OCCO2)C(c1ccc(C(F)(F)F)cc1)n1c(=O)c(-c2cc3ccccc3[nH]2)nc2ccccc21 (configuration not stated)
i	-2.3	-5	21	4.5	COc1ccc(C(C#N)=C2C=CC(=NO)C(C)=C2Cl)cc1
i	-2.2	-2	-1	-1.8	C[C@H](CO)N1C[C@H](C)[C@@H](CN(C)Cc2ccc(C(=O)Nc3ccccc3N)cc2)Oc2c(NC(=O)Nc3ccc(F)cc3)cccc2C1=O
i	0.1	-5	-2	1.3	O=C(C[C@@H]1CC[C@@H]2[C@H](COC[C@@H](O)CN2Cc2ccc(F)cc2)O1)NCCc1ccccc1
i	3.8	4	-3	1.4	N#C[C@H]1[C@H](c2ccc(C#CCC3CCCC3)cc2)[C@@H](CO)N1C(=O)CN1CCOCC1
i	1.1	1	3	-3.6	Cc1ccc(S(=O)(=O)Nc2ccc3c(c2)C(=O)N([C@@H](C)CO)C[C@@H](C)[C@@H](CN(C)C(=O)Nc2ccc(F)cc2)OCCCC[C@@H](C)O3)cc1
i	0.2	-5	-17	-2.5	CC(=O)N1C[C@H]2CON(C)[C@H]2C[C@H]1c1cccc(-c2cc(Cl)cc(Cl)c2)c1
i	1.9	6	2	-2.9	[O-][n+]1nc2ccccc2c2ccccc21
i	5.0	0	-1	1.8	CO[C@@H]1CN(C)C(=O)c2ccc(NC(=O)Nc3ccccc3Cl)cc2OC[C@@H](C)N(C)C[C@H]1C
i	-2.3	0	-1	-1.4	COc1ccc(CN(C)C[C@@H]2Oc3c(NC(=O)c4cnccn4)cccc3C(=O)N([C@H](C)CO)C[C@H]2C)cc1
i	4.1	0	3	1.1	O=C(NC1CCCCC1)[C@@H]1[C@@H](CO)[C@@H]2Cn3c(cccc3=O)[C@@H]2N1CC1CCOCC1
i	-3.7	-1	11	-4.4	C[C@@H]1CN([C@@H](C)CO)C(=O)Cc2cc(NS(=O)(=O)c3ccc(F)cc3)ccc2O[C@H]1CN(C)Cc1ccc(C(=O)O)cc1
i	2.8	3	4	18	Oc1ccc(C[C@@H](CN2CCCC2CN2C(=S)NC[C@@H]2Cc2ccccc2)N2C[C@H](Cc3ccccc3)N(CC3CCCCC3)C2=S)cc1 (some centres not stated)
i	-1.4&2.3&4.4	0&-1	-11&-2	-7.1&1.6	COc1ccccc1-c1ccc2c(c1)O[C@@H](CN(C)C(=O)c1ccncc1)[C@H](C)CN([C@@H](C)CO)S2(=O)=O
i	1.1	-9	-7	2.0	Cc1ccc(-c2ccccc2[C@H]2[C@@H](C#N)N(C(=O)Cc3cccnc3)[C@@H]2CO)cc1
i	-0.9	-4	0	-2.7	CCCC(=O)Nc1ccc2c(c1)OC[C@H](C)N(CCC(F)(F)F)C[C@H](C)[C@H](OC)CN(C)C2=O
i	3.5	-58	-77	-16	COc1ccc(C#Cc2ccc([C@H]3[C@@H](CO)N4CCCCN(S(=O)(=O)c5cn(C)cn5)C[C@H]34)cc2)cc1
i	3.7	4	10	0.4	Cc1noc(C)c1NC(=O)N(C)C[C@H]1OCCCC[C@H](C)Oc2ccc(NC(=O)C3CCCCC3)cc2C(=O)N([C@H](C)CO)C[C@H]1C
i	-1.9	-1	3	2.3	CNC[C@H]1Oc2c(NC(=O)c3nc4ccccc4s3)cccc2C(=O)N([C@@H](C)CO)C[C@@H]1C

Three entries from above, sorted by the number in Ecoli rRNA inh OD600, lowest first:
mol | FGF22 binding | AF4-AF9 inh | Ecoli rRNA inh | Ecoli rRNA inh OD600 | Ecoli rRNA inh RFP
CC(=O)N1C[C@H]2CON(C)[C@H]2C[C@H]1c1cccc(-c2cc(Cl)cc(Cl)c2)c1 | i | 0.2 | -5 | -17 | -2.5
N#C[C@H]1[C@H](c2ccc(C#CCC3CCCC3)cc2)[C@@H](CO)N1C(=O)CN1CCOCC1 | i | 3.8 | 4 | -3 | 1.4
CNC[C@H]1Oc2c(NC(=O)c3nc4ccccc4s3)cccc2C(=O)N([C@@H](C)CO)C[C@@H]1C | i | -1.9 | -1 | 3 | 2.3

(next part)
FGF22 binding	AF4-AF9 inh	Ecoli rRNA inh	Ecoli rRNA inh OD600	Ecoli rRNA inh RFP	mol
i	2.9	-14	-22	1.1	COCCNC(=S)N1CCC2CC1c1cc(-c3ccc4c(c3)OCO4)ccc12 (configuration not stated)
i	-2.0	2	6	-0.7	CC(=O)N(C)C[C@H]1Oc2ncc(-c3ccccc3C)cc2C(=O)N([C@H](C)CO)C[C@@H]1C
i	1.6	4	2	-1.6	CCC(=O)Nc1ccc2c(c1)C(=O)N(C)[C@@H]1CC[C@@H](CC(=O)N3CCCCC3)O[C@@H]1CO2
i	-2.7	-6	-3	1.0	CCOC(=O)N(C)C[C@@H]1OCc2ccccc2-c2c(n(C)c3ccccc23)C(=O)N([C@@H](C)CO)C[C@@H]1C
i	-3.5	-2	-3	-3.5	COc1cccc(-c2ccc([C@H]3[C@H](CO)N4C(=O)CN(C(=O)c5cccnc5)C[C@@H]34)cc2)c1
i	-3.3	-3	-11	-3.0	C[C@H]1CN([C@@H](C)CO)C(=O)Cc2cc(NC(=O)CCC(F)(F)F)ccc2O[C@@H]1CN(C)Cc1ccc(C(=O)Nc2ccccc2N)cc1
i	-1.9	-2	0	-2.3	COCC(=O)Nc1ccc2c(c1)[C@@H]1C[C@@H](CC(=O)O)O[C@@H](CO)[C@@H]1O2
i	-1.2	1	-6	0.5	COc1cccc(CNC(=O)C[C@@H]2C=C[C@H](NC(C)=O)[C@H](CO)O2)c1
i	-1.6	2	-3	0.0	CCCNC(=O)N[C@H]1CC[C@@H](CC(=O)NC2CCCCC2)O[C@@H]1CO
i	-4.7	-1	13	-3.1	COc1cc(NC(=O)Cn2cnc(C(=O)Nc3ccc(C)c(C)c3)n2)cc(OC)c1OC

Record cards, from the list above. Order of screens: FGF22 binding | AF4-AF9 inh | Ecoli rRNA inh | Ecoli rRNA inh OD600 | Ecoli rRNA inh RFP
CCCNC(=O)N[C@H]1CC[C@@H](CC(=O)NC2CCCCC2)O[C@@H]1CO is entered as i | -1.6 | 2 | -3 | 0.0
CC(=O)N(C)C[C@H]1Oc2ncc(-c3ccccc3C)cc2C(=O)N([C@H](C)CO)C[C@@H]1C is entered as i | -2.0 | 2 | 6 | -0.7
